# Screening results as filed in PubChem BioAssay.
# VDR inhibitor = blocks the human vitamin D receptor. VDR-SRC2-3 peptide fluorescence polarization, 2 h. actives 0.93% (n = 400,000). Potency, µM, inactives show max response, negative = inhibition, actives largely listed as inhibitors. P11473. AID 504847; active means well fitted inhibition curve with a large enough effect; inconclusive means small, poorly fitted or top-dose-only effect, or another doubt; inactive means no such curve, though single readings can be large or run the other way; further: series mostly up to about 120 µM
# Target sequence (P11473 whole entry, looked up): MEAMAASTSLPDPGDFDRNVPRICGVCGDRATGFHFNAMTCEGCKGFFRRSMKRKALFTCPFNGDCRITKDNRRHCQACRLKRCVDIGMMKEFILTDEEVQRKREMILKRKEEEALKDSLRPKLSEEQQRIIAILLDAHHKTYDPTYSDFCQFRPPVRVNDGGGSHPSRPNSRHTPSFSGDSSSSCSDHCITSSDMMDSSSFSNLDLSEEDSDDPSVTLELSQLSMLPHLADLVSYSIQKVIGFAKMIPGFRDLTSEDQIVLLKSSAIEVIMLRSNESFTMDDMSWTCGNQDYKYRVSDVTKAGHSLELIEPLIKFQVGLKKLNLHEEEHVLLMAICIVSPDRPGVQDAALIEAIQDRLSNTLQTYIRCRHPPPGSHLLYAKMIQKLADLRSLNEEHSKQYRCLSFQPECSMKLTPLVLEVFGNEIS
#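 After 23 nl compound addition and a short centrifugation, plates sat for 2 hours at ambient temperature; polarization of fluorescence then indicated loss of VDR binding to peptide SRC2-3.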
# Starred values were filed as active, the others as inactive; ? = inconclusive; & = joins results of further samples. On the % scale 0 is the no-effect control and ±100 the full control effect; potency means the concentration at half of the fitted maximal effect. These rows are one share of the data; count on the stated rates, not on these rows.
SMILES,VDR inhibitor
CCOC(=O)c1cnc(SCC(=O)NCc2ccco2)nc1N,2%
CC(C)[C@H](NC(=O)c1ccc(Cl)cc1)C(=O)OCC(=O)N1CCN(c2ccccc2)CC1,-3%
O=C(Nc1ccc(Cl)c(Cl)c1)N1CCC(N2CCCCC2)CC1,-2%
COc1ccc(-c2nc3ccccc3s2)cc1NC(=O)COc1ccc(C)cc1,6%
O=C(CSc1nc(C2CCCCC2)n(-c2ccccc2)n1)NCC(F)(F)F,-10%
COC(=O)c1c(NC(=O)C2C3C=CC(CC3)C2C(=O)O)sc(C)c1C (stereo not given),-20%
Nc1nc(N)nc(Cc2ccccc2O)n1,-1%
Cc1nc2ccccc2c(=O)n1NC(=O)c1ccc([N+](=O)[O-])cc1Cl,-8%
CCCCn1c(=O)[nH]c(=O)c2c1nc(-c1cc(Cl)c(OC)c(OC)c1)n2C,15%
O=C(CN1CCOCC1)Nc1ccccc1Sc1ccc(Cl)cc1,0%
Cc1ccc(C)c(N2CCN(CCCNC(=O)Cn3ncc4c([nH]c5ccccc54)c3=O)CC2)c1,-2%
Cc1ccc(Cl)cc1N1CCN(C(=O)CCS(=O)(=O)c2cccc3nonc23)CC1,-9%
O=C(NCc1nnc(SCC(=O)N2CCOCC2)o1)c1ccccc1F,10%
CCCCc1ccc(S(=O)(=O)NCCCN2CCCC2=O)cc1,14%
CCOC(=O)c1sc(NC(=O)CSC(=S)N2CCN(C)CC2)nc1C,2%
O=C(NCCN1CCOCC1)c1cc2ccccc2[nH]1,-1%
COc1ccc(NC(=O)CSC2=C(C#N)C(c3ccco3)C(C(=O)Nc3nc4ccccc4s3)=C(C)N2)cc1 (stereo not given),15%
COc1ccc(NC(=O)Cn2c(-c3ccccc3)cc(C(C)=O)c2C)c(OC)c1,-3%
COc1cc2nc(CSc3ncn[nH]3)[nH]c(=O)c2cc1OC,2%
Cc1ccc(/C=C/c2ccc(=O)n(Cc3ccc(F)cc3)n2)cc1,-1%
N#CCCn1c(=O)c(-c2cccc(C#N)c2)nc2cnc(N3CCOCC3)nc21,0%
Cc1cccn2cc(-c3ccc(F)cc3)nc12,0%
CC(O)C(O)C(O)C(O)C1NCCS1 (stereo not given),-10%
CCN(CC)CCCN=Cc1c(O)n(-c2ccccc2C)c(=O)c2ccccc12,8%
CCNC(=O)NC(=O)CSc1nc2ccccc2n1CC(C)C,0%

# More compounds
SMILES,VDR inhibitor
Cc1ccc(CNC(=O)c2cccc(N3CCCS3(=O)=O)c2)cc1,7%
COc1ccc2[nH]c(C(=O)O)c(CCN3C(=O)c4cccc([N+](=O)[O-])c4C3=O)c2c1,-4%
O=C(CSc1ncn(-c2ccccc2)n1)Nc1ccc(Br)cn1,1%
Cn1c(SCC(=O)n2c3c(c4ccccc42)CCCC3)nnc1-c1ccccc1,1%
COc1ccccc1CNC(=O)COC(=O)c1nc(Cl)ccc1Cl,11%
Cc1cc(C)nc(SCc2cn3cc(Cl)ccc3n2)n1,-22%
CCOC(=O)N1CCN(CC(O)COC2CC(C)CC(C)(C)C2)CC1 (stereo not given),12%
COc1ccc(C)c(S(=O)(=O)Nc2ccc(OCC(=O)O)cc2)c1,-4%
CCOc1ccc(CCN2C(=O)CCC2(C)C(=O)NC(C)CC)cc1OCC (stereo not given),0%
O=C(CSc1nc(=O)n2ccccc2n1)Nc1ccc2c(c1)OCCO2,-15%
O=C(O)c1cccc(S(=O)(=O)Nc2ccc([N+](=O)[O-])cc2O)c1,-7%
CC(C)CC(=O)N1CCN(c2ccc([N+](=O)[O-])c(NCc3ccccc3)c2)CC1,-21%
CC1CN(S(=O)(=O)c2cc(C(=O)N(CCc3ccccc3)Cc3ccccc3)ccc2Cl)CC(C)O1 (stereo not given),1%
Cc1ccc(C)c(NC(=O)Cn2cc(C(=O)c3ccncc3)c(=O)c3cc(F)ccc32)c1,14%
COc1cc(NS(=O)(=O)c2ccc3c(c2)CC(C)N3C(=O)C2CCC2)cc(OC)c1OC (stereo not given),-4%
O=[N+]([O-])c1ccc(N2CCN(c3ccc(Cl)nn3)CC2)c(Cl)c1,1%
O=C(CSc1nnc(Cn2c(=O)sc3ccccc32)n1-c1ccccc1)NCc1ccco1,-15%
CCn1c(SCC(=O)Nc2nc(C)c(C(=O)OC)s2)nnc1C(C)C,-2%
Cc1ccc(C)c(NC(=O)CCc2ccc(C)o2)c1,-5%
COC(=O)c1ccc(C2Nc3c(C)cc(C)cc3C3C=CCC32)cc1 (stereo not given),?
CCOC(=O)c1c[nH]n(-c2ccc(C)cc2)c1=O,10%
CCCCN(C(=O)NC(=O)Nc1cc(C)ccc1C)S(C)(=O)=O,4%
CC1(NC(=O)CCS(=O)(=O)c2ccc(Cl)cc2)CCS(=O)(=O)C1 (stereo not given),-5%
CC1OC(OCC2OC(Oc3c(-c4ccc(O)cc4)oc4cc(O)cc(O)c4c3=O)C(O)C(O)C2O)C(O)C(O)C1O (stereo not given),1%
COc1ccc2nc(SCC(=O)Nc3nccs3)[nH]c2c1,-3%

# Further compounds:
SMILES,VDR inhibitor
COc1ccc(-c2cc(CN3C(=O)c4ccccc4C3=O)on2)cc1,-10%
Cc1cc(C)n2nc(SCc3cccc(F)c3)nc2n1,-16%
Cc1cc(CN2CCCC(C(=O)Nc3ccc(-c4nc5ccccc5[nH]4)cc3)C2)n[nH]1 (stereo not given),25%
O=c1cc(-c2ccco2)oc2c1ccc1ccccc12,?
C[N+](C)(C)CCOP(=O)([O-])OP(=O)(O)OCC1OC(n2ccc(N)nc2=O)C(O)C1O (stereo not given),11%
COc1ccccc1NC(=O)c1c(NC(=O)CCC(=O)O)sc2c1CCCCC2,-13%
O=C(O)CCCCCCCCCCC1CCC(O)C1O (stereo not given),2%
COc1ccc(-c2nc3cc(C)ccn3c2NCC2CCCO2)cc1OC (stereo not given),3%
OCCCn1c(C2CCCN2c2nc(-c3ccc(Cl)cc3)cs2)nc2cc(C(F)(F)F)ccc21 (stereo not given),-15%
CCc1cc2c(SCC(=O)c3ccc(C)cc3)ncnc2s1,8%
COc1ccc(NC(=O)C(NC(=O)c2ccccc2)C(C)C)cc1 (stereo not given),6%
CC1CCN(c2c(NCC3CCC(C(=O)Nc4ccccn4)CC3)c(=O)c2=O)CC1 (stereo not given),2%
O=C(/C=C/c1cccs1)c1cc(Cl)ccc1O,?
CCOC(=O)Cc1csc(NC(=O)c2cccc(N3C(=O)CCC3=O)c2)n1,0%
CC[C@H](C)[C@H](NC(=O)[C@@H]1CCCN1C(=O)[C@H](C)NC(=O)[C@H](CC(N)=O)NC(=O)[C@@H]1CCCN1C(=O)[C@@H]1CCCN1C(=O)[C@H](CCCN=C(N)N)NC(=O)[C@H](Cc1ccc(O)cc1)NC(=O)[C@H](C)NC(=O)[C@@H]1CCCN1C(=O)[C@@H]1CCCN1C(=O)[C@@H](N)[C@@H](C)O)C(=O)N[C@@H](CC(C)C)C(=O)O,3%
COc1ccc(/C=C2\SC(=S)N(CCC(=O)Nc3cccc(O)c3)C2=O)cc1,-4%
C=CCSc1nc2ccccc2c2nc(-c3ccccc3)nn12,12%
COc1cccc(-c2c(C(=O)N/N=C/c3ccoc3)nnn2-c2nonc2N)c1,8%
CCOC(=O)N1CCN(C(=O)CN(c2cccc(C)c2)S(=O)(=O)c2ccc(C)cc2)CC1,1%
O=C(O)Cc1ccc(NC(=O)c2cccs2)cc1,2%
CCOCCOC(=O)c1ccc(-n2cnc(C)n2)nc1,-1%
CCc1ccc(NC(=O)COc2ccc(F)cc2C(=O)c2cnn(-c3ccccc3)c2)cc1,-13%
CCOCCCNC(=O)CCSc1ccc(C)cc1,-4%
Cc1ccc(SCC(=O)OCC(=O)NCCc2ccc(S(N)(=O)=O)cc2)c(C)c1,-13%
COc1cc(-c2noc(-c3nnn(-c4ccc(Cl)cc4)c3C)n2)cc(OC)c1OC,14%

# (listing goes on)
SMILES,VDR inhibitor
O=C(CCC1CCN(Cc2ccccc2Cl)CC1)NC1CC1,8%
O=C(Cn1ccc2cc(S(=O)(=O)N3CCCCC3)ccc21)NCc1ccccc1F,-15%
Nc1nnc(CCCCCCCCCCc2nnc(N)s2)s1,-5%
O=C(Nc1cccc(S(=O)(=O)N2CCOCC2)c1)c1c2c(nc3ccccc13)CCC2,5%
COc1ccc(NS(=O)(=O)c2cccc(C(=O)N/N=C/c3cccs3)c2)cc1,-22%
Cc1ccc(S(=O)(=O)N2CCN(c3ccccn3)CC2)cc1,9%
CCN1CC(CN(C)Cc2nc(-c3ccc(C(F)(F)F)cc3)no2)CC1=O (stereo not given),-24%
CN(C(=O)c1ccccc1C(=O)OCC(=O)c1ccc(F)cc1)c1ccccc1,-11%
CC(=O)c1cc(C(=O)Nc2ccc(C(=O)O)cc2)oc1C,6%
CC(=O)N(c1cccc(C)c1)C1SC(=O)N(c2ccccc2)C1=O (stereo not given),11%
Cc1ccccc1-c1nnc(C2CCN(S(=O)(=O)c3ccc(Cl)cc3)CC2)o1,-10%
Cc1nnc(NCc2ccccc2)c2ccccc12,-10%
CN(Cc1nc(-c2ccccn2)no1)S(=O)(=O)c1ccc(Cl)cc1,9%
c1ccc2c(c1)CC(N1CCCCC1)c1ccccc1S2 (stereo not given),-5%
CC(=O)c1cccc(N(CC(=O)NCCc2ccccc2)C(=O)c2csnn2)c1,-17%
C/C(=N\Nc1ccc(S(=O)(=O)N2CCCCC2)cn1)c1cccc(Br)c1,6%
Cc1ccn2c(=O)c(NC(=O)c3cccc4ccccc34)c(C)nc2c1,-3%
CCOC(=O)c1c(C)[nH]c(C)c1S(=O)(=O)N1CCOCC1,-5%
CCc1ccc(CNC(=O)Cn2nc(-c3ccc(Cl)cc3)ccc2=O)cc1,?
CNc1nc(C)c(C#N)cc1C(C)=O,17%
Nn1c(SCc2ccccc2)nnc1-c1ccco1,7%
CCCC[n+]1c(-c2ccc(Cl)cc2Cl)csc1Nc1ccccc1,-19%
Cc1cc(C)c2cc(CN(Cc3ccco3)C(=S)NCC3CCCO3)c(=O)[nH]c2c1 (stereo not given),-12%
COC(=O)c1ccc(N2CCN(C)CC2)c(NC(=O)c2ccc(Br)o2)c1,1%
COc1ccc(NC(=O)c2cccc(S(=O)(=O)N3CCOCC3)c2)cc1,1%

# (list continues)
SMILES,VDR inhibitor
COc1cc(OC)cc(OC(=O)C2CCN(S(=O)(=O)c3ccc(OC)c(OC)c3)CC2)c1,5%
CCOC(=O)C1=C(C)N(CC)C(=S)NC1c1ccc(Cl)cc1 (stereo not given),-13%
NC(=O)CC(NC(=O)Cc1ccc(Br)cc1)c1ccc(NC2CCCC2)c([N+](=O)[O-])c1 (stereo not given),-22%
COc1ccc(NC(=O)Cn2nc(Cc3cccnc3)c3ccccc3c2=O)cc1OC,-9%
COc1ccccc1[N+](=O)[O-],-10%
COc1ccccc1Nc1nc(-c2c(C)[nH]c3ccccc23)cs1,-6%
COc1cc2c(-c3ccccc3C)nc3c(c(C)nn3-c3ccccc3)c2cc1OC,5%
CNc1ncncc1-c1ccccc1C(F)(F)F,?
CC(=O)c1cccc(NC(=O)Cn2c(=O)oc3cc(S(=O)(=O)N4CCCC4)ccc32)c1,-3%&-3%
COc1ccc(CNC(=O)[C@H](CCSC)NC(=O)N2CCn3c2nc2ccccc23)cc1,-4%
O=C(CSCc1ccc([N+](=O)[O-])cc1)NC1CCCCCC1,-16%
O=C(Nc1ccc(Cl)cc1)C1=Cc2cc(Cl)ccc2OC1,6%
Cc1nn(CC(=O)Nc2cccc(C(F)(F)F)c2)c(=O)c2nn(-c3ccccc3)c(C)c12,13%
CC1CN(C(=O)c2ccccc2OCc2ccccc2Cl)CC(C)O1 (stereo not given),0%
CCc1cccc(C)c1NC(=O)C(c1ccc(O)cc1)N1CCC1=O (stereo not given),15%
Fc1ccccc1N1CCN(c2ncnc3nc[nH]c23)CC1,-8%
CC(=O)NC1C(Oc2cccc(C)c2)OC2COC(c3ccco3)OC2C1O (stereo not given),1%
Cc1ncc(C[n+]2csc(CCOP(=O)(O)O)c2C)c(N)n1,2%
O=c1cnnc(Nc2ccccc2)[nH]1,2%
Cc1c(F)cccc1NS(=O)(=O)c1ccc2c(c1)n(C)c(=O)c(=O)n2C,4%
O=C(Cc1ccccc1[N+](=O)[O-])NCCCc1ccccc1,?
Cc1ccc(S(=O)(=O)N2CC=C(c3c(C)n(C)c4ccccc34)CC2)cc1,-25%
CCOC(CNC(=O)c1cccn2c(=O)c3cc(Cl)ccc3nc12)OCC,9%
COc1ccc(NC2CCCN(C(=O)CN3C(=O)c4ccccc4C3=O)C2)cc1OC (stereo not given),-10%
